ClpP mod – qHTS Assay for Activators of ClpP | ATP-dependent Clp protease proteolytic subunit (Bacillus subtilis (strain 168)), P80244 | purified B. subtilis ClpP, FRET peptide cleavage, 20 min | Potency, µM (titrated, usually from 57.5 µM), for inactives: at the top dose activity change, negative = active | 340,000 tested, 1.9% active; active = well fitted falling curve with a large enough effect; inconclusive = small, poorly fitted or top-dose-only effect; inactive = no such curve, though single readings can be large or run the other way; also: the source files actives as falling curves though it sought activators and does not explain the sign; nearly all actives have a fitted effect of over 65% in size; many hits overshoot -100%
Target sequence (P80244 whole entry, looked up): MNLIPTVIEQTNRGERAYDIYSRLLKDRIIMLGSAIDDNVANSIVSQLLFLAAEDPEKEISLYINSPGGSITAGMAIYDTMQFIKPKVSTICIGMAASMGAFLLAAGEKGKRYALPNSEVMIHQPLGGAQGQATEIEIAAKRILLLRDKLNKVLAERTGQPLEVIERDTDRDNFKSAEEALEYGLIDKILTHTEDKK
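Buffer: 100 mM Tris/HCl pH8, 100 mM KCl, 0.05% low protease BSA, 2.5% glycerol, 0.01% Tween-20. ClpP 10 microg/mL final; 20 min RT; delta FRET normalized to ADEP and DMSO controls.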
PINK1 expr mod – modulators of PINK1 expression | 410,000 tested, 0.2% active | Potency, µM (titrated, usually from 76.6 µM), inactives show at the highest dose activation (PINK1 increase), hits mostly activators | PINK1 immunofluorescence, high-content cytometry, 24 h | AID 624263; active = well fitted activation curve with a large enough effect; inconclusive = small, poorly fitted or top-dose-only effect; inactive = flat fitted curve, though single readings scatter; cell line not stated here;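 also: % of control where 0% means no effect; nearly all actives have a fitted effect of over 65% in size; a mitochondrial uncoupler was the plate control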
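Measures PINK1 amount and localization on or inside mitochondria by immunofluorescence. Stable cells get compounds at 5 concentrations for 24 hours before fixation and staining; CCCP controls included.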
Numbers without * were called inactive; ? = inconclusive; & = joins results of further samples. Potency is read from the fitted curve at half-maximal effect. The list is partial; rates above refer to the full screens.

molecule,ClpP mod,PINK1 expr mod
Cc1c(NC(=O)c2cc(=O)c3ccccc3o2)c(=O)n(-c2ccccc2)n1C,1.5%,-0.7%
CCOCCCn1c(SCC(=O)Nc2ccccc2CC)nc2ccccc2c1=O,-3.5%,4.1%
COC(=O)c1c(C)sc(-c2c(-c3ccc(F)cc3)[nH]c3[nH]c(=O)[nH]c(=O)c23)c1O,-3.8%,8.3%
Cc1cn2c(=O)cc(COc3cccc(NC(=O)c4ccc(C(C)(C)C)cc4)c3)nc2s1,28µM*,1.9%
COc1cccc(-c2cn3c(n2)sc2cc(C(=O)NCCc4ccccc4)ccc23)c1,4.3%,3.8%
Cc1nc(-c2ccc(Cl)cc2)sc1CCNC(=O)C(=O)Nc1ccc2c(c1)OCO2,3.4%,0.8%
CCc1cccc(C)c1NC(=O)CN1CCN(Cc2ccccc2Cl)S1(=O)=O,1.8%,0.2%
CCOC(=O)c1cnc2c(C)cc(C)cc2c1NCCN1CCOCC1,-30%,2.0%
CCC(=O)N1c2ccc(S(=O)(=O)N3CCCCCC3)cc2CC1C (stereo not given),-2.3%,1.0%
Cc1ccc(Cl)cc1N1CCN(c2ncnc3onc(C)c23)CC1,0.7%,-4.2%
Cc1cccc(NC(=O)Cn2c(SCC(=O)NCc3ccccc3)nc3ccccc32)c1C,0.1%,-1.8%
CC(C)(C)c1ccc(C(=O)Nc2ccc(NC(=O)c3ccc(Cl)c(Cl)c3)cc2)cc1,-6.1%,-0.4%
CCCCN(C)CCCNC(=O)C1CCN(c2nc3ccc(CC)cc3s2)CC1,-2.3%,0.0%
CCOc1ccc(CCNc2ncnc3onc(-c4ccc(F)cc4)c23)cc1OCC,-0.6%,-0.1%
CCCN(CCC)CC(O)Cn1cc(/C=C/C(=O)c2ccc(C)cc2)c2ccccc21 (stereo not given),0.0%,-1.4%
COc1ccc(/C=C(/C#N)c2nc(-c3ccc(Br)cc3)cs2)cc1,-4.8%,2.8%
Nc1[nH]c(C(=O)c2ccccc2)c(-c2ccncc2)c1C(=O)NC1CC1,-2.2%,0.8%
CC(=O)Nc1ccc(C)cc1-c1nc2ccccc2n(CC(=O)Nc2cc(Cl)ccc2C)c1=O,-3.0%,-0.5%
Fc1ccc(NCc2nc3ccccc3n2CCOc2ccccc2Cl)cc1,-7.4%,3.3%
CCCn1cc(S(=O)(=O)c2ccc(OCC)cc2)c(=O)c2cc(C)ccc21,-2.6%,-2.2%
Cc1ccc(CCNC(=O)c2ccc(CS(=O)(=O)Cc3ccc(Cl)cc3)o2)cc1,0.1%,4.5%
CCCCCn1c(=N)c(S(=O)(=O)c2ccccc2)cc2c(=O)n3cccc(C)c3nc21,0.6%,0.1%
Cc1c(Cl)cccc1NC(=O)CSc1nc(=O)n(Cc2cccnc2)c2c1CCC2,-6.0%,-0.6%
CC(=O)c1cccc(NC(=O)Cc2ccc(NC(=O)N3CCCCc4ccccc43)cc2)c1,-0.8%,-0.2%

An excerpt of these results, with values under each structure.
Value order: ClpP mod | PINK1 expr mod
CC(=O)Nc1ccc(C)cc1-c1nc2ccccc2n(CC(=O)Nc2cc(Cl)ccc2C)c1=O
→ -3.0% | -0.5%
Fc1ccc(NCc2nc3ccccc3n2CCOc2ccccc2Cl)cc1
→ -7.4% | 3.3%
CCCn1cc(S(=O)(=O)c2ccc(OCC)cc2)c(=O)c2cc(C)ccc21
→ -2.6% | -2.2%

New compounds follow:
molecule,ClpP mod,PINK1 expr mod
Cc1ccc(NC(=O)c2sc(-n3nc(C)c(Cc4ccc(Cl)cc4)c3C)nc2C)cc1,-3.2%,-0.2%
CCCCSc1nnc2c(n1)OC(C)N(C(C)=O)c1ccccc1-2 (stereo not given),1.9%,0.6%
Cc1ccc(NC(=O)C(=O)NCC(c2ccc3c(c2)OCO3)N2CCOCC2)cc1C (stereo not given),2.1%,-0.1%
CCCCNC(=O)c1nn(-c2ccc(CC)cc2)nc1CO,?,4.7%
Cc1nc(N2CCOCC2)c2c(C(=O)N3CCN(c4cc(Cl)ccc4C)CC3)c(C)oc2n1,2.3%,4.2%
CC(=O)N1CCc2cc(S(=O)(=O)NC(CC(C)C)C(=O)NCc3ccccc3Cl)ccc21 (stereo not given),0.7%,2.2%
COc1cccc(NC(=O)Cn2c(=O)n(CC(=O)NCc3ccc(C)cc3)c(=O)c3sccc32)c1,-8.7%,1.1%
COc1ccc(-c2cnc(NCc3ccc(C)cc3)n2C)cc1,-9.9%,0.9%
CSc1cccc(-c2nnc(NC(=O)c3ccc4c(c3)OCCO4)o2)c1,-9.7%,1.9%
COc1ccccc1C(=O)NC(=O)Nc1ccc(-c2cc(C(F)(F)F)nn2-c2ccccc2)cc1,-0.3%,-0.8%
CC1=Nc2cc(C(=O)NC3CCCC3)ccc2Sc2ccc(C)cc21,-1.4%,4.1%
Cc1ccc(-c2nc3ccccc3[nH]2)cc1NC(=O)COc1cccc(C)c1C,4.2%,7.0%
Cc1ccccc1Nc1c(-c2ccccc2)nc2cccc(C)n12,3.6%&3.6%,-0.7%&-1.3%
COc1ccc(-c2cn(-c3ccc(C)cc3)c(S(=O)(=O)CC(=O)Nc3ccccc3)n2)cc1,-7.3%,0.5%
Clc1cccc(-n2ncc3c(NC4CCCCC4)ncnc32)c1,-6.4%,?
COc1ccc(-c2nc3cc(C)c(Br)c(C)n3c2Cc2ccccc2C(F)(F)F)cc1OC,-2.1%,2.0%
COc1ccc(S(=O)(=O)n2nc(-c3ccco3)nc2NCc2ccc(N(C)C)cc2)cc1,-12%,0.6%
O=c1c2oc3ccccc3c2n(Cc2cccc(Cl)c2)c(=O)n1Cc1ccco1,-19%,-1.1%
CCOc1ccc(-c2nn(CC(=O)NC3CCCC3)c3c2cnc2ccc(C)cc23)cc1,-11%,0.8%
O=c1cc(COc2ccccc2Cl)nc2scc(-c3ccccc3)n12,-2.8%,8.8%
O=C(Cn1c(=O)n(-c2ccccc2)c(=O)c2c3c(sc21)CCC3)c1ccc(F)cc1,-3.8%,1.9%
CCCCn1nnnc1C(c1ccccc1)N1CCN(C)CC1 (stereo not given),-0.6%,-0.8%
COc1ccccc1OC(C)C(=O)Nc1ccc(-c2nc3ccccc3s2)cc1 (stereo not given),4.1%,3.8%
Cc1ccc(NC(=O)CN2C(=O)c3ccccc3Sc3ccc(C(=O)N4CCOCC4)cc32)cc1C,1.5%,0.8%
CC(=O)c1ccc(N2CCN(C(=O)C3CCN(S(=O)(=O)c4cn(C)cn4)CC3)CC2)cc1,-5.3%,-0.3%
Cc1ccc(Cn2c(CNC(=O)Cc3cccc([N+](=O)[O-])c3)nc3cccnc32)cc1,-1.2%,-0.1%
CCOc1ccc(NC(=O)Cn2cc(C(=O)c3ccc(OCC)cc3)c(=O)c3cc4c(cc32)OCCO4)cc1,-2.5%,0.7%
COc1cccc2cc(-c3nnc(Nc4ccccc4C)s3)c(=O)oc12,0.5%,-0.1%
COc1cc(C2CC(=O)Nc3c2c(=O)n(C)c(=O)n3C)cc(OC)c1OC (stereo not given),-4.4%,0.0%
Cc1ccc(-n2nc(C(=O)Nc3ccc(C)c(F)c3)c3c4ccccc4n(C)c3c2=O)cc1,-3.9%,0.5%
O=C(Nc1ccccc1C(F)(F)F)N1CCC(CN2CCc3ccccc3C2)CC1,-6.2%,1.7%
CCN1c2ccccc2-c2nc(SCC(=O)Nc3cc(C)c(Cl)cc3OC)ncc2S1(=O)=O,-3.1%,0.2%
CCn1c(C(=O)N2CCCC(C(=O)NCCCOC)C2)cc2sccc21 (stereo not given),-3.5%,2.4%
O=C(NNc1ccccc1C(F)(F)F)c1sccc1Cl,-0.6%,1.8%
CCOc1ccc(C(=O)N2CCC(c3nc4ccccc4o3)CC2)cc1,-0.8%,-0.5%
CC(C)C[C@H]1CN(CCCC[C@H]2CNC(=O)C(=O)N2CCc2ccc(O)cc2)C(=O)C(=O)N1CCc1ccc(O)cc1,0.6%,0.1%
Cn1c(=O)c2c(nc(Oc3ccccc3)n2Cc2c(Cl)cccc2Cl)n(C)c1=O,-0.1%,2.4%
O=C(NCC(c1ccc2c(c1)OCO2)N1CCOCC1)C(=O)Nc1cccc(Cl)c1 (stereo not given),3.1%,4.1%
CC(=O)c1ccc(NC(=O)COc2ccccc2-c2nc(C(C)C)no2)cc1,-0.5%,-0.5%
Cc1cccn2c(=O)cc(CSc3nnc(NC(=O)c4ccc(F)cc4)s3)nc12,-14%,16%
COc1cccc(C(=O)N2CCC(N3CCN(Cc4ccc(F)cc4)C(=O)C3=O)CC2)c1,0.1%,0.6%
COc1cc(OC)c(NC(=O)C(Cc2ccccc2)NS(=O)(=O)c2cccc3nsnc23)cc1Cl (stereo not given),0.9%,1.4%
Cc1cccc(NC(=O)CSc2nnc3[nH]c(=O)cc(-c4ccccc4)n23)c1C,4.4%,-3.5%
O=C(Nc1ccc(F)cc1F)c1cc(-c2ccc(Cl)cc2)on1,1.8%,3.3%
CCc1ccccc1NC(=O)CCn1nc(C)c2c(C)n(-c3ccccc3)nc2c1=O,-1.3%,-1.1%
Cc1ccc(-c2nc3ccc(Cl)cn3c2Nc2ccc3c(c2)OCCO3)o1,-10%,-0.1%
O=C(Cn1cc(S(=O)(=O)c2ccc(Cl)cc2)c(=O)c2ccccc21)Nc1ccc2c(c1)OCO2,-8.4%,3.0%
CCC(=O)N1CCc2cc(S(=O)(=O)NCCC(=O)Nc3cccc(C)c3C)ccc21,-2.1%,0.2%

As entered above:
Under PINK1 expr mod, Cn1c(=O)c2c(nc(Oc3ccccc3)n2Cc2c(Cl)cccc2Cl)n(C)c1=O is listed with 2.4%
Under ClpP mod, COc1cccc(C(=O)N2CCC(N3CCN(Cc4ccc(F)cc4)C(=O)C3=O)CC2)c1 is listed with 0.1%
Under PINK1 expr mod, O=C(Cn1cc(S(=O)(=O)c2ccc(Cl)cc2)c(=O)c2ccccc21)Nc1ccc2c(c1)OCO2 is listed with 3.0%

Other entries:
molecule,ClpP mod,PINK1 expr mod
COc1ccccc1C(=O)Nc1c(C(=O)N(C)Cc2ccccc2)sc2nc(C)c(Cl)c(C)c12,?,3.0%
Cc1ccc(C)c(S(=O)(=O)c2cn(Cc3ccccc3)c3cc(F)c(F)cc3c2=O)c1,-0.3%,0.1%
O=C(CN1C(=O)C2CCCCN2c2ccc(C(=O)N3CCCC3)cc21)NCc1ccccc1F (stereo not given),-2.8%,-1.0%
CN(C)c1ncc(C(=O)NCc2ccccc2Cl)cn1,-10%,3.6%
Cc1cccc(NC(=O)CN2C(=O)c3cccnc3Oc3ccc(Cl)cc32)c1C,-2.2%,1.9%
O=C(NCc1cccc(Cl)c1)c1ccc2c(Cl)c3c(nc2c1)CCCC3,-9.7%,0.8%
COc1ccc(NC(=O)c2ccco2)cc1NC(=O)COc1ccc(Cl)c(C)c1,-5.9%,5.5%
Cc1cccc(-c2nn3c(=O)cc(CN4CCN(C(=O)/C=C/c5ccccc5)CC4)nc3s2)c1,-3.2%,1.1%
CNS(=O)(=O)c1cc(-c2nnc(Nc3cc(C)ccc3C)c3ccccc23)ccc1C,?,-0.3%
COc1ccc(-c2cc(C(F)(F)F)nc(SCC(=O)NCC(C)C)n2)cc1OC,4.0%,0.7%
CC(=O)c1ccc(NC(=O)Cn2c(=O)n(Cc3ccco3)c(=O)c3sc4ccccc4c32)cc1,-1.8%,11%
Cc1ccc(S(=O)(=O)NCC2CCC(C(=O)NCc3ccc(F)cc3)CC2)cc1 (stereo not given),1.7%,2.7%
COC(=O)c1ccc(NC(=O)c2ccccc2OCC(=O)Nc2ccc(Br)cc2)cc1,3.6%,8.4%
CCC(C)NC(=O)C1CCN(S(=O)(=O)c2ccc3c(ccn3CC)c2)CC1 (stereo not given),-7.1%,2.9%
O=c1[nH][nH]c2c1[C@H](c1ccc(Cl)cc1)O[C@H](C1CC1)C2,-3.1%,2.1%
Cc1ccc(-c2noc(-c3ccccc3NC(=O)c3ccccc3)n2)cc1,-3.9%,1.6%
CCCCNC(=O)CSc1nc2nc(C)c(Cc3c(F)cccc3Cl)c(C)n2n1,-6.7%,0.3%
Cc1ccc(Nc2nc3ccc(C)cc3nc2-n2nc(C)cc2C)c(C)c1,-6.2%,0.1%
CC(C)C[C@H]1COc2cc(N3CCC[C@H]3CO)ccc2S(=O)(=O)N1,-4.5%,-1.1%
Cc1ccc(S(=O)(=O)N2CCN(c3nc(-c4cncn4C)nc4ccccc34)CC2)cc1,32µM*,0.4%
COc1ccc(-n2c(=O)c3sc4ccccc4c3n(Cc3ccccc3C)c2=O)cc1OC,-3.8%,3.0%
CC(C)(C)OC(=O)N1CCC(c2c(C(=O)NCc3ccc4c(c3)OCO4)cnn2-c2ccccc2Cl)CC1,1.4%,2.2%
Cc1ccc(CNc2ccc(-c3nc(C(C)C)no3)cc2[N+](=O)[O-])cc1,0.7%,-0.2%
CCn1nnc2cc(C(=O)Nc3cc(C)ccc3C)ccc21,1.3%,13%
CCn1cc(C(=O)OCC(=O)Nc2ccc(C)c(Cl)c2)c(=O)c2ccc(C)nc21,0.0%,-0.4%

Screening results (PubChem BioAssay)
